Screening data: PubChem, National Center for Advancing Translational Sciences (NCATS)
2A StopGo: FMDV 2A StopGo reporter, luciferase signal; 410,000 compounds, 1.2% hits; human cells with a luciferase reporter of 2A StopGo recoding; control for the full effect not named in the record; AID 1159524; Potency, µM (top dose mostly 57.9 µM), for inactives: at the top dose signal change, negative = less light; active = well fitted falling curve with a large enough effect; inconclusive = small, poorly fitted or top-dose-only effect; inactive = no such curve, though single readings can be large or run the other way; tested in HEK293T cells; also: % is scaled to controls: 0 for no effect and ±100 for the full control effect; nearly all actives have a fitted effect of over 45% in size; luciferase light after 4 h
NS1 inh: influenza NS1 inhibition; Potency, µM (series often up to 46.1 µM), inactives show at the highest dose activity, positive = more growth; S. cerevisiae slowed by influenza A NS1, growth recovery by OD600; 270,000 compounds, 0.4% hits; active means well fitted rising curve with a large enough effect; inconclusive means small, poorly fitted or top-dose-only effect; inactive means no such curve, though single readings can be large or run the other way; also: nearly all actives have a fitted effect of over 50% in size
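A cell-based growth assay was used: compounds that relieve NS1-induced slow growth of budding yeast raise OD600. Assay medium was yeast nitrogen base with ammonium sulphate and -URA supplement, pH 6.0, with 2% galactose.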
Cruzain inh Det: inhibitors of Trypanosoma cruzi cruzain with detergent; purified cruzain, Z-FR-AMC fluorescence, 0.01% Triton; Potency, µM, inactives show max response, negative = inhibition, most hits filed as inhibitors; 200,000 compounds, 0.43% hits; AID 1478;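 also: plate controls were neutral wells for no effect and buffer without enzyme for full effect; nearly all actives have a fitted effect of over 40% in size; top concentration of the series not given in the record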
Target sequence (P25779 123-467 limits assumed): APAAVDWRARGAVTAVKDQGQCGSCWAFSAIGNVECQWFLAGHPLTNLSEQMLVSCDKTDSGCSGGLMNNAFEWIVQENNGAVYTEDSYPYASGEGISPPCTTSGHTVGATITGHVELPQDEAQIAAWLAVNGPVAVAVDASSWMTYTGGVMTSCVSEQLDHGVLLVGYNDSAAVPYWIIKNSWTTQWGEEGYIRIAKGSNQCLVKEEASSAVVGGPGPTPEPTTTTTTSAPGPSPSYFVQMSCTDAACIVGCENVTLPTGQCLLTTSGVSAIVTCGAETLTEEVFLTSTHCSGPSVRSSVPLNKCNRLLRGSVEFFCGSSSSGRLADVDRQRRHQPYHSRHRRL
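Detergent-containing arm of a paired screen for aggregation-based inhibition: 0.01% Triton X-100 present. Cruzain at 1.5 nM cleaved 2 uM Z-FR-AMC at pH 5.5 with 5 mM DTT; AMC fluorescence gain over 60 s measured activity.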
Lassa entry inh: blocks Lassa virus binding to or entry into cells; AID 540256; 300,000 compounds, 1.2% hits; Lassa virus pseudotype entry inhibition, cell reporter; control for the full effect not named in the record; Potency, µM (series often up to 37.9 µM), inactives show at the highest dose activity change, negative = inhibition, actives largely listed as inhibitors; active means well fitted inhibition curve with a large enough effect; inconclusive means small, poorly fitted or top-dose-only effect, or effect the other way; inactive means flat fitted curve, though single readings scatter; tested in HEK293 cells; also: % is scaled to controls: 0 for no effect and ±100 for the full control effect; nearly all actives have a fitted effect of over 50% in size; luciferase read-out
Cruzain noTriton: blocks cruzain activity in detergent-free assay. purified cruzain, Z-FR-AMC fluorescence, no detergent. AID 1476. Potency, µM, for inactives: max response, negative = inhibition, hits mostly inhibitors. 200,000 compounds, 2.3% hits;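 also: plate controls were enzyme without inhibitor for no effect and buffer without enzyme for full effect; nearly all actives have a fitted effect of over 40% in size; top concentration of the series not given in the record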
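Detergent-free condition (0.00005% Triton X-100) in acetate buffer pH 5.5 with DTT. 1.5 nM enzyme and compound were pre-mixed 15 min, then 2 uM Z-FR-AMC substrate added; reaction progress from fluorescence change between first and third reads (60 s).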
MARV entry inh: blocks Marburg virus binding to or entry into cells; 300,000 compounds, 1.8% hits; Marburg virus pseudotyped entry inhibition, cell reporter; control for the full effect not named in the record; about a third of the inactives were read at about 46 µM; Potency, µM (top dose mostly 37.8 µM), inactives show top-dose activity change, negative = inhibition, usual class: inhibitors; active = well fitted inhibition curve with a large enough effect; inconclusive = small, poorly fitted or top-dose-only effect, or effect the other way; inactive = flat fitted curve, though single readings scatter; tested in HEK293 cells; about a fifth of its hits are not listed in these tables; also: % is scaled to controls: 0 for no effect and ±100 for the full control effect; luciferase read-out
SARS PLpro yeast: blocks SARS-CoV papain-like protease in a yeast assay. S. cerevisiae expressing SARS-CoV PLpro, growth rescue; control for the full effect not named in the record. Potency, µM (highest dose often 32.9 µM), inactives show top-dose activity, positive = growth rescue. 330,000 compounds, 0.19% hits. AID 485353; active means well fitted rising curve with a large enough effect; inconclusive means small, poorly fitted or top-dose-only effect; inactive means no such curve, though single readings can be large or run the other way; also: 0% is about no effect; nearly all actives have a fitted effect of over 55% in size; growth read by luminescence after 48 h
RE007 growth inh: less growth of the S. pombe RE007 Vpr strain; Potency, µM (series often up to 92.2 µM), without a hit: top-dose activity change, negative = less growth; S. pombe RE007 Vpr strain, BacTiter-Glo ATP luminescence, 24 h; control for the full effect not named in the record; 360,000 compounds, 0.21% hits; active = well fitted falling curve with a large enough effect; inconclusive = small, poorly fitted or top-dose-only effect; inactive = no such curve, though single readings can be large or run the other way;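 also: % is scaled to controls: 0 for no effect and ±100 for the full control effect; nearly all actives have a fitted effect of over 50% in size; the assay follows cell death caused by Vpr and the record does not say whether a fall means rescue or toxicity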
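Fission yeast strain RE007, carrying one chromosomally integrated HIV-1 vpr copy, was seeded at OD 0.01 in PMG+AL medium with 23 nL pinned compound. After 24 h at 30 °C and 99% humidity, viability was read by BacTiter-Glo luminescence.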
Numbers without * were called inactive; ? = inconclusive; . = not tested or not shown; & = joins results of further samples; [ ] = remark or other dose. Unless noted, calls follow the shape of the dose curve; as a rule, active = well fitted curve in the direction sought with a large enough effect; inconclusive = small, poorly fitted or top-dose-only effect, or another doubt; inactive = no such curve, though single readings can be large; an effect the other way counts as inactive or inconclusive. Potency is read from the fitted curve at half-maximal effect.

SMILES	2A StopGo	NS1 inh	Cruzain inh Det	Lassa entry inh	Cruzain noTriton	MARV entry inh	SARS PLpro yeast	RE007 growth inh
Cc1cc(C)n(Cc2ccc(NC(=O)c3c([N+](=O)[O-])c(C)nn3C)cc2)n1	-4%	-2%	-9.2%	2%	-8%	10%	1%	6%
CSC1=N/C(=C\c2ccccc2)C(=O)N1C	-9%	-12%	-4.2%	-13%	-5%	-3%	4%	-22%
CCc1cccc(C)c1NC(=O)C1CCN(S(=O)(=O)c2cc(Br)cc3c2N(C(C)=O)CC3)CC1	-16%	.	-0.7%	16%[46.1 µM]	24%	0%[46.1 µM]	.	.
COCCN1Cc2cccc(C(=O)Nc3ccc(C)c(C)c3)c2C1=O	31%[activator]	-15%	-5.6%	-4%	?	0%	-2%	-18%
COc1ccc(NC(=O)CN2CCN(CC(=O)Nc3cc(OC)cc(OC)c3)CC2)cc1	-9%	-18%	-7.7%	2%	-2%	?	-1%	7%
O=C(OCC(=O)N1CCN(C(=O)c2ccco2)CC1)c1cc(-c2ccc(Cl)c(Cl)c2Cl)nc2ccccc12	?	15%	-0.7%	?	-1%	?	-6%	-17%
O=C(NCCN1CCCC1)c1ccc(Br)cc1	0%	2%	.	5%	.	0%	1%	-4%
CCN(CCCNC(=O)c1c(C)cc(=O)oc1C)c1ccccc1	12%	-9%	-2.2%	-20%	4%	14%	-1%	-20%
CCOC(=O)c1c(C)c(C(=O)Nc2ccc(F)cc2)c(C)n1C	0%	.	.	-14%[46.1 µM]	.	?	1%	-7%
CCOC(=O)c1sc2nc(CC(=O)OC)nc(N3CCN(c4ccc(OC)cc4)CC3)c2c1C	?	27%	-4.5%	-11%	?	?	0%	-3%
CC1CN(C(=O)c2ccc(C(=O)c3ccccc3)cc2)CC(C)O1 (stereo not given)	.	-9%	0.9%	-1%	2%	-13%	0%	4%
CC(C(=O)NC(=O)NC1CCCCC1)N1CCN(C(c2ccccc2)c2ccccc2)CC1 (stereo not given)	0%	3%	1.5%	-4%	-5%	23%	2%	-13%
COc1ccc(NC(=O)C(Cc2c[nH]c3ccccc23)NC(=O)OC(C)(C)C)cc1 (stereo not given)	7%	.	-8.3%	?	-1%	4%[46.1 µM]	.	.
CC(=O)c1ccc2c(c1)C1C=CCC1C(c1ccc(S(=O)(=O)N3CCOCC3)cc1)N2 (stereo not given)	-16%	?	-11%	?	0%	?	15%	-8%
O=C(O)CCn1c(=S)n(CCC(=O)O)c2ccccc21	-6%	-40%	.	.	.	1%	0%	1%
CCOC(=O)c1ccc(-c2csc(NC(=O)CN3CCC(C)CC3)n2)cc1	-8%	-19%	.	?	.	11%[46.1 µM]	-1%	-5%
O=C(CCC(=O)N(c1ccc(F)cc1)C(C(=O)NC1CCCC1)c1ccncc1)Nc1cccnc1 (stereo not given)	-7%	-7%[9.22 µM]	-1.3%	11%	1%	-3%	1%	4%
COc1ccc(CCN(C)Cc2cccc3ccccc23)cc1OC	-26%	7%	.	.	.	.	5%	-8%
CCc1ccc(CNC(=O)c2cnc3sc4cc(OC)ccc4n3c2=O)cc1	-2%	.	0.8%	.	-4%	?	.	.
CCCn1c(CN2CCCCC2CC)nc2c1c(=O)n(C)c(=O)n2C (stereo not given)	0%	-10%	0.4%	.	-2%	.	-1%	-4%
CO/N=C(\Cn1ncc(NC2CCCCC2)c(Br)c1=O)c1ccc(Cl)cc1	-29%	9%	-6.1%	?	15%	?	-9%	2%
COc1cccc(-n2cc(CN(C)Cc3nc(Cc4ccccc4)no3)cn2)c1	-5%	-4%	.	?	.	-8%[46.1 µM]	-1%	-23%
CC1CN(C(=O)CSc2cn(CC(=O)N3CCOCC3)c3ccccc23)CC(C)O1 (stereo not given)	-2%	-6%	.	?	.	26%[46.1 µM]	?	0%
CCCc1cc(=O)[nH]c(Nc2ccc(OC)c(Cl)c2)n1	?	3%	-12%	5%	-25%	-3%	-6%	-1%

Five records picked at random from the list so far:
SMILES	2A StopGo	NS1 inh	Cruzain inh Det	Lassa entry inh	Cruzain noTriton	MARV entry inh	SARS PLpro yeast	RE007 growth inh
COc1ccc(CCN(C)Cc2cccc3ccccc23)cc1OC	-26%	7%	.	.	.	.	5%	-8%
COc1cccc(-n2cc(CN(C)Cc3nc(Cc4ccccc4)no3)cn2)c1	-5%	-4%	.	?	.	-8%[46.1 µM]	-1%	-23%
O=C(CCC(=O)N(c1ccc(F)cc1)C(C(=O)NC1CCCC1)c1ccncc1)Nc1cccnc1 (stereo not given)	-7%	-7%[9.22 µM]	-1.3%	11%	1%	-3%	1%	4%
CCCn1c(CN2CCCCC2CC)nc2c1c(=O)n(C)c(=O)n2C (stereo not given)	0%	-10%	0.4%	.	-2%	.	-1%	-4%
O=C(O)CCn1c(=S)n(CCC(=O)O)c2ccccc21	-6%	-40%	.	.	.	1%	0%	1%

Later entries
SMILES	2A StopGo	NS1 inh	Cruzain inh Det	Lassa entry inh	Cruzain noTriton	MARV entry inh	SARS PLpro yeast	RE007 growth inh
CC(C)N1CCC(N2CCN(C3CCCCCC3)CC2CCO)CC1 (stereo not given)	-24%	0%	.	.	.	.	1%	9%
CCCN1C2CCCC1CC(NC(=O)C1CCCCC1)C2 (stereo not given)	0%	-36%	-3.4%	13%	-8%	-24%	-5%	-1%
COc1ccccc1NC(=O)Cn1c(=O)n(CC(=O)NCc2ccccc2Cl)c(=O)c2sccc21	2%	.	-3.1%	18%[46.1 µM]	4%	?	.	.
COc1ccc(C2=C(CC(=O)O)C(=O)CC2)cc1	-18%	12%	-1.8%	8%	14%	?	11%	-8%
CCN(C(=O)Cn1c(=O)nc(-c2ccccc2)c2cc(Cl)ccc21)c1cccc(C)c1	-5%	.	-8.9%	-1%[46.1 µM]	9%	.	.	.
COc1ccc(C(CC(=O)O)NC(=O)c2ccccc2)cc1OC (stereo not given)	-9%	8%	1.6%	11%	?	28%	2%	-7%
COc1cccc(N2C(=O)Nc3ccccc3C2(O)C(=O)NCc2ccc3c(c2)OCO3)c1 (stereo not given)	-14%	-2%	5.8%	-1%	-8%	-11%&-11%	-1%	-3%
CN(C)c1nc(SCC#N)nc(N(C)C)n1	6%	3%	-1.7%	-2%	6%	-4%	3%	9%[3.69 µM]
CCC(CC)C(=O)Nc1ccc(Nc2ccccc2)cc1	8%	-4%	-3.5%	?	-5%	27%	5%	-4%
COc1ccccc1CNC(=O)CN1C(=O)COc2ccc(S(=O)(=O)NC3CCCC3)cc21	22%&7%	4%	.	0%[46.1 µM]	.	.	-2%	3%
CC(C)(C)c1ccc(-c2nnc(SCC(=O)c3ccc4c(c3)OCCO4)o2)cc1	-7%	-2%	1.1%	1%	-11%	1%	18%	5%
Oc1[nH]c2ccc(Br)cc2c1N=Nc1ccc(F)cc1	29%	5%	.	29%[46.1 µM]	.	24%[46.1 µM]	-2%	3%
Cc1nc(-c2ccc(C(=O)N3CCCC3)cc2)cs1	45%[activator]	.	.	3%	.	-7%[46.1 µM]	-6%	-9%
Cc1cc(C(=O)CSc2nc3ccccc3[nH]2)c(C)n1Cc1ccco1	-72%	3%	-1.2%	4µM*	25µM*	?	1%	2%
O=[N+]([O-])c1cccc(/C=N/NS(=O)(=O)c2ccccc2)c1	52%[activator]	3%	.	?	.	?	0%	96%
Cc1ccc(OCc2nnc(SCC(=O)c3ccccc3)n2Cc2ccco2)cc1	?	-7%	-9.2%	?	-15%	?	-6%	-1%
Cc1ccccc1N1CCN(CCC(=O)Nc2ccc(F)cc2)CC1	-9%	-5%	.	.	.	.	-9%	2%
COc1cc(/C=C2\SC(=S)N(NC(=O)c3cccnc3)C2=O)ccc1O	-9%	6%	.	.	.	.	0%	1%
Cc1ccccc1C(=O)N1CC(=O)Nc2ccc(F)cc2C1c1ccc(F)cc1 (stereo not given)	-15%	0%	.	-1%	.	2%	3%	1%
CCn1cc(/C=N/N=C2\CCC3C4CCc5cc(O)ccc5C4CC[C@]23C)c(C)n1 (stereo not given in full)	?	1%	-6.5%	-25%	?	-18%	-7%	26%
C/C(CC(=O)Nc1cc(C)ccn1)=N\NC(=O)COc1cccc(C)c1	.	2%	-5.1%	.	-3%	.	-6%	.
COCCNC(=O)CN(c1cc(Cl)ccc1OC)S(C)(=O)=O	.	-7%	8.0%	-3%	1%	-13%	0%	2%
COc1ccc(N(C(=O)c2snc(C(N)=O)c2N)C(C(=O)NC2CCCC2)c2ccc(OC)c(OC)c2)cc1 (stereo not given)	-12%	?	.	?	.	-24%[46.1 µM]	-3%	-29%
CCC(C)NC(=O)C1c2ccccc2C(=O)N1Cc1ccccc1OC (stereo not given)	41%[activator]	5%	-1.0%	-13%	1%	-9%	1%	3%

Whole records, quoted from the list. Screens in order: 2A StopGo	NS1 inh	Cruzain inh Det	Lassa entry inh	Cruzain noTriton	MARV entry inh	SARS PLpro yeast	RE007 growth inh
Cc1ccccc1C(=O)N1CC(=O)Nc2ccc(F)cc2C1c1ccc(F)cc1 (stereo not given) as listed: -15%	0%	.	-1%	.	2%	3%	1%
COc1ccc(N(C(=O)c2snc(C(N)=O)c2N)C(C(=O)NC2CCCC2)c2ccc(OC)c(OC)c2)cc1 (stereo not given) as listed: -12%	?	.	?	.	-24%[46.1 µM]	-3%	-29%
